High-throughput results (PubChem BioAssay)
miR-21 reporter: miR-21 reporter, rising signal; HeLa miR-21 FLuc reporter, luciferase, 48 h; Potency, µM (titrated, usually from 38.3 µM), for inactives: at the highest dose reporter change, positive = more light; 340,000 tested, under 10 active; AID 2288; active = well fitted rising curve with a large enough effect; inconclusive = small, poorly fitted or top-dose-only effect; inactive = no such curve, though single readings can be large or run the other way;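 also: % of control where 0% means no effect; miR-21 action dims this reporter so a rising signal means less miR-21 action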
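Luminescence from a firefly luciferase reporter carrying a miR-21 binding site downstream, stably expressed under a CMV promoter in HeLa cells that make miR-21 endogenously, reports miRNA modulation after 48 h compound exposure up to approximately 40uM final.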
Rango release inh: prevents RanGTP from dissociating the Rango-importin beta complex; O95149+P62826; Biochemical FRET Rango-importin beta, RanGTP-induced dissociation; Potency, µM (series often up to 46.1 µM), for the others: top-dose activity change, negative = inhibition; 340,000 compounds, 0.071% hits; AID 540253; active means falling FRET ratio curve, often poorly fitted, with flat reads before Ran was added; inconclusive means other falling curves, or compound fluorescence or quenching; inactive means flat or rising ratio curve;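 also: potency is read from the fitted curve at half-maximal effect; % of control where 0% means no effect; nearly all actives have a fitted effect of over 45% in size; -100% = wells without RanGTP and RCC1; the record marks most hits as doubtful in a second field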
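Compounds preincubate 5 min with complex of recombinant Rango and importin beta in PBS with 1 mM DTT. Ran (0.6 uM) loaded with 2 mM GTP plus 0.2 uM RCC1 starts dissociation; FRET is recorded 45 min later.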
Rango-impB inh: prevents formation of the Rango-importin beta complex; Potency, µM (series often up to 92.2 µM), without a hit: top-dose inhibition of complex formation; 340,000 compounds, 0.031% hits; Rango CFP/YFP FRET sensor + importin beta, 45 min; AID 540263; active = rising FRET ratio curve, often small or poorly fitted; inconclusive = mostly compound fluorescence or quenching in the first reads; inactive = flat curves in all reads;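 also: potency is read from the fitted curve at half-maximal effect; 0% = DMSO wells and 100% = buffer wells lacking importin beta; nearly all actives have a fitted effect of over 15% in size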
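FRET biosensor (snurportin 1 IBB flanked by EYFP and cerulean), 50 nM, with compound 5 min, then 0.125 microM importin beta in PBS, 1 mM DTT, 0.02% Tween-20, 0.1% BSA. CFP/YFP ratio read after 45 min at room temperature; pre-read flags interference.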
GLA inh pH 4.5: alpha-galactosidase A (human) inhibition, pH 4.5; purified enzyme, 4-MU-alpha-Gal fluorescence, pH 4.5; P06280; AID 1467; 230,000 tested, under 10 active; activity change, negative = inhibition, % at 105 µM; inconclusive = small, poorly fitted or top-dose-only inhibition, or a rising curve; inactive = flat fitted curve, though single readings scatter; no compound was filed as active;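 also: 0% = full activity with enzyme and -100% = basal without enzyme; dose as in the result columns while the protocol names 77 µM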
Target sequence (P06280 whole entry, looked up): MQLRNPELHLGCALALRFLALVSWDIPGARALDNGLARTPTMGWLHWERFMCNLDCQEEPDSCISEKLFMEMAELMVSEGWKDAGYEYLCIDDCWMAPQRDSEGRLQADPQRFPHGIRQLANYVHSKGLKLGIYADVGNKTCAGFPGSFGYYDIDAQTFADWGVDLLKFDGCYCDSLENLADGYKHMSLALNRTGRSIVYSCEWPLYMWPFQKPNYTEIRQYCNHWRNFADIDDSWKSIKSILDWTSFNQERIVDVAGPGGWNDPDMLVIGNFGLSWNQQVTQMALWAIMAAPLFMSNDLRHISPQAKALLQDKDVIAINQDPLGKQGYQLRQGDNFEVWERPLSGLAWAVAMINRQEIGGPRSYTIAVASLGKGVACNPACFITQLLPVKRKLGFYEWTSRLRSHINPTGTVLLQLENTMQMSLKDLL
An asterisk follows results filed as active; ? = inconclusive; . = not tested or not shown; & = joins results of further samples. These rows are one share of the data; count on the stated rates, not on these rows.

SMILES | miR-21 reporter | Rango release inh | Rango-impB inh | GLA inh pH 4.5
O=C(Cc1ccccc1)NC(c1ccco1)c1c(O)ccc2ccccc12 (stereo unspecified) | 0.6% | 0.0% | 0.8% | 4.3
COc1cc(-n2c(=O)c3ccccc3n(Cc3cccc(C)c3)c2=O)cc(OC)c1OC | 1.3% | 1.3% | -2.4% | 13.3
COc1ccc(S(=O)(=O)Nc2c(C)cc(C)cc2C)c2cccnc12 | 0.0% | 7.7% | -0.1% | .
Cc1cnn(-c2cc(N/N=C/c3ccccc3Cl)ncn2)c1 | -3.2% | 9.2% | -3.2% | 5.2
Cc1ccc(CCNC(=O)C2CCCN(S(=O)(=O)c3c(C)noc3/C=C/N(C)C)C2)cc1 (stereo unspecified) | 0.4% | -24.2% | ? | -1.8
COC(=O)c1ccc(N2C(=O)CC(N(C)CCc3ccc(OC)c(OC)c3)C2=O)cc1 (stereo unspecified) | -0.5% | 2.1% | 0.8% | -18.7
O=C(Nc1ccccc1-c1ccccc1)C1CCCN(c2ncccn2)C1 (stereo unspecified) | -1.7% | 0.2% | 3.4% | 4.2
Cc1cc(C)cc(Oc2nc(C(F)(F)F)nc3ccccc23)c1 | 19.9% | -3.7% | -2.3% | -5.1
COCCn1c(=S)[nH]c2cc(C(=O)N(CCO)Cc3ccccc3)ccc2c1=O | 0.9% | -0.4% | -0.3% | .
Cc1ccccc1NC(=S)N(Cc1ccccn1)Cc1ccccc1Cl | -5.9% | 5.5% | -4.2% | -3.5
COc1cccc(/C=N/n2c(SC)nnc2-c2ccccc2)c1O | 21.7% | ? | ? | 5.4
COc1ccc(CCNC(=O)C(=O)NCc2ccc(C)cc2)cc1OC | -10.8% | -6.8% | 0.3% | -1.7
CCc1nnc(NC(=O)C2CCN(S(=O)(=O)Cc3ccccc3)CC2)s1 | -0.5% | 2.5% | 5.2% | 4.5
Cn1c(=O)c2[nH]c(Cc3cccc4ccccc34)nc2n(C)c1=O | . | -19.6% | -2.3% | .
COc1ccc(-c2csc(Nc3ccccc3)[n+]2Cc2ccccc2)cc1 | -19.9% | -3.6% | 1.6% | -5.4
COc1ccc(CNC(=O)C2CCCN(c3nn4c(=O)cc(C)nc4s3)C2)cc1 (stereo unspecified) | -3.2% | -3.3% | 5.2% | .
COc1ccc2c(c1)CCc1c(C(=O)Nc3ccn(Cc4ccc(C)cc4)n3)noc1-2 | -4.9% | 14.4% | -3.5% | 1.7
CN(C(=O)CSc1nc2cc([N+](=O)[O-])ccc2n1-c1ccc(F)cc1)C1CCS(=O)(=O)C1 (stereo unspecified) | -4.6% | 19.0% | 0.6% | 3.2
CCOC(=O)N1CCN(C(=O)CCSCCc2ccncc2)CC1 | -1.0% | -4.0% | -2.8% | -4.1
CCN(CC)CCN(C(=O)c1ccc(S(=O)(=O)N(C)C2CCCCC2)cc1)c1nc2ccc(OC)cc2s1 | -5.1% | 0.0% | -0.6% | .
Cc1cccc(NC(=S)NC(=O)CC2CC(C)(C)OC2=O)c1 (stereo unspecified) | -13.3% | -16.3% | 1.9% | 6.3
O=C(Nc1ccc(Cc2ccncc2)cc1)C1CCC(N2C(=O)C3CC=CCC3C2=O)CC1 (stereo unspecified) | 17.7% | -8.3% | 0.2% | -5.9
COc1ccc(-c2csc(NC(=O)Cn3nc(C)cc3C)n2)cc1 | -4.5% | 5.9% | 2.7% | 2.8
Cc1sc2ccc3sccc3c2[n+]1C | 8.4% | -1.2% | -1.6% | 0.4
CCN(CC)S(=O)(=O)c1ccc(NC(=O)COc2c(OC)cccc2OC)cc1 | 1.5% | 8.4% | -2.4% | -0.8
COc1ccc(CN2CCN(C(C)C(=O)N(C)Cc3cccc(F)c3)CC2)cc1OC (stereo unspecified) | 1.9% | -7.8% | -3.2% | .
O=C(NCC(c1ccco1)N1CCN(c2ccccc2F)CC1)C(=O)NC1CC1 (stereo unspecified) | . | -11.0% | 4.1% | .
COc1ccccc1/C=C1\SC(=S)N(CCC(=O)N2CCN(C)CC2)C1=O | 9.0% | -9.5% | 0.8% | .
N#C/C(=C/c1ccc(N2CCOCC2)o1)c1ccc(Cl)cc1 | 22.4% | ? | ? | -6.7
COc1ccc(CC(=O)Nc2ccc(C(C)=O)cc2)cc1 | -28.9% | -12.7% | ? | -1.5
C[n+]1ccccc1/C=C/c1cc(Br)ccc1O | 0.5% | -8.2% | 0.4% | .
C(=N\N1CCN(Cc2ccccc2)CC1)/c1ccc(-c2ccccc2)cc1 | -2.1% | 18.6% | 1.9% | 5.1
S=C(NCCc1ccccc1)N/N=C/c1cccs1 | . | -14.2% | 0.7% | .
Cc1cccc(C)c1OCC(=O)N/N=C/c1cccnc1 | 0.2% | -19.5% | -0.2% | .
COc1cccc(NC(=O)C(=O)c2cn(CC(=O)N3CCCC3)c3ccccc23)c1 | -27.0% | 29.6% | 6.4% | .
Cc1ccc(C)c(N2CCN(S(=O)(=O)c3ccc4[nH]c(=O)c(=O)[nH]c4c3)CC2)c1 | 1.2% | 6.3% | -4.1% | -0.5
O=C(c1ccc(N2C(=O)C3C4c5ccccc5C(c5ccccc54)C3C2=O)cc1)N1CCOCC1 (stereo unspecified) | -2.6% | 0.7% | -0.7% | -12.1
COC(=O)C1C(=O)CC(C)(O)C(C(=O)OC)C1/C=C/c1ccccc1 (stereo unspecified) | -3.5% | 0.5% | -0.6% | 4.5
O=C(CCc1nnc2n(Cc3ccccc3Cl)c(=O)c3ccccc3n12)NCCCN1CCOCC1 | 0.5% | 4.3% | -3.8% | .
CCCCn1c(N)c(N(CC(C)C)C(=O)c2cccc(S(=O)(=O)N3CC(C)OC(C)C3)c2)c(=O)[nH]c1=O (stereo unspecified) | . | 11.6% | -1.0% | .
COc1cc(C(=O)Nc2ccccc2SCc2cc(=O)n3nc(C)sc3n2)cc(OC)c1OC | -5.0% | -4.6% | -2.1% | .
Cc1cc(C)n(C(=O)c2ccc(Cn3nc(C)c(Br)c3C)o2)n1 | -15.3% | 0.7% | 1.7% | 5.6
CC(C)Oc1ccc(OCCSc2nc3ccccc3n2CC(=O)O)cc1 | -0.8% | 52.2% | 0.3% | .
Cc1ccc(Nc2nnc(C)c(=O)[nH]2)cc1 | 1.2% | 13.0% | -3.6% | 3.1
COc1ccc2nc(C)cc(SCC(=O)NNC(=O)COc3ccccc3)c2c1 | 0.9% | -1.6% | 0.8% | 6.1
CC1CCN(C2CCN(C(=O)c3ccccc3F)CC2)CC1 | 2.7% | 18.3% | -1.2% | 7.5
CCCCN1C(=O)c2ccc(C(=O)NC3=NCCS3)cc2C1=O | -6.6% | 1.9% | 0.3% | -13.8
Cn1nnnc1Sc1ncnc2scc(-c3ccc(Br)cc3)c12 | . | 0.8% | 0.9% | .
c1ccc2[nH]c(-c3nc4ccccc4[nH]3)nc2c1 | -30.8% | -18.3% | 0.5% | -3.0
COc1ccc2cc(C(=O)/C=C/c3cc(OC)c(O)c(OC)c3)ccc2c1 | 21.3% | ? | ? | .
CCN(CC)S(=O)(=O)c1cccc(NC(=O)CCNC(=O)NC23CC4CC(CC(C4)C2)C3)c1 | . | 0.3% | -1.5% | .
Cc1ccc(CNC(=O)CCCC(=O)Nc2cc(C)on2)cc1 | 2.6% | -11.6% | -0.4% | -1.1
Nc1c(Cl)cnc(C(Cl)(Cl)Cl)c1Cl | -5.2% | 0.7% | 1.3% | 5.0
COc1ccc(S(=O)(=O)Nc2ccc(-c3ccc(N4CCCC4)nn3)cc2)cc1C | . | 0.1% | 0.2% | .
COc1ccc(CCC(=O)N2CCN(S(=O)(=O)c3ccc4ccccc4c3)CC2)cc1 | 10.5% | -16.5% | 4.8% | -0.3
Cc1ccc(CN(Cc2cccnc2)C(=O)CN2C(=O)COc3ccccc32)o1 | 2.1% | -14.0% | -0.4% | 6.5
Cc1nn(-c2ccccc2)c(C)c1CN | -3.9% | 5.6% | -1.2% | 2.1
O=C(NC1Cc2ccccc2C1)c1cc(COc2ccc(F)cc2Cl)on1 | 1.7% | -0.3% | 0.3% | 1.6
O=C(NCc1ccc(F)cc1F)Nc1cnccc1C(F)(F)F | 7.6% | 9.8% | 0.3% | .
CC(NC(=O)CC1SC(N)=NC1=O)c1ccccc1 (stereo unspecified) | -1.2% | -15.6% | -4.7% | 4.8

Next section.
SMILES | miR-21 reporter | Rango release inh | Rango-impB inh | GLA inh pH 4.5
CCOC(=O)c1cn(CC(=O)Nc2cccc(Cl)c2)nn1 | 3.1% | -3.5% | 0.5% | 2.4
CCN1C(=O)c2cccc3c(S(=O)(=O)NCc4ccccc4)ccc1c23 | . | ? | ? | .
CCCc1c(O)nc(SC2CC(=O)N(c3cc(OC)ccc3OC)C2=O)[nH]c1=O (stereo unspecified) | -6.4% | -4.2% | 0.2% | 7.2
CCOC(=O)C1CCCN(CCC(=O)Nc2ccc(F)c(F)c2)C1 (stereo unspecified) | -2.2% | -6.8% | -0.5% | -1.8
O=C1N/C(=C/c2ccc(N3CCOCC3)o2)C(=O)N1c1cccc(Cl)c1 | 19.7% | -7.9% | ? | -4.2
COc1ccc(NC(=O)COc2nc3ccccc3nc2N2CCOCC2)c(OC)c1 | -1.8% | -3.4% | 1.5% | 11.2
CCOC(=O)Cn1c(=O)oc2cc(S(=O)(=O)N(C)c3cccc(C)c3)ccc21 | -0.8% | 2.2% | 1.5% | -4.0
O=C(Cn1cc([N+](=O)[O-])cn1)NC1CCCCCC1 | 0.2% | 1.7% | ? | .
Cc1ccc(NC(=O)C2CCN(c3ncnc4sc(C)c(C)c34)CC2)cc1S(=O)(=O)N(C)C | . | 3.6% | 0.0% | .
COc1ccc(CCNS(=O)(=O)c2cc3c4c(c2)CCN4C(=O)CC3)cc1 | . | 19.6% | -0.8% | .
CCCn1nnc(NC(=O)c2ccc(Cl)cc2Cl)n1 | -44.1% | -12.2% | -5.9% | 2.0
O=C(CCc1ccc(S(=O)(=O)N2CCOCC2)cc1)OCc1nc2ccccc2s1 | -45.2% | -2.2% | ? | 5.9
O=C(COC(=O)c1ccc(Cl)s1)c1cc2ccccc2o1 | 3.8% | -6.2% | -0.1% | -1.9
c1ccc(-c2ccccc2OCCCCN2CCCCCC2)cc1 | 20.1% | 0.3% | -2.5% | -6.0
Cc1occc1C(=O)NCCCCc1ccccc1 | -18.3% | -24.6% | 1.5% | 2.4
C/C(=N/NC(=O)CNC(=O)c1ccccc1)c1ccc(C)cc1 | -2.5% | -4.9% | ? | -2.7
COC(=O)C1C(=O)C=C(Nc2ccc(F)cc2)CC1c1ccc(OC)cc1 (stereo unspecified) | -66.6% | -4.2% | -0.5% | 1.8
COc1cc(OC)cc(C(=O)Nc2ccc3c(c2)OCCO3)c1 | -48.3%&-38.5% | 5.2% | -2.5% | .
COc1ccc(/C=C(\NC(=O)c2ccco2)C(=O)N2CCCCC2)cc1 | -2.8% | -15.9% | 5.1% | .
Cc1cc(=O)[nH]c2cc(Cl)ccc12 | -12.5% | -7.5% | 2.2% | -2.8
CCOC(=O)CSc1nc2ccc(N3CCOCC3)cc2c(=O)n1Cc1ccc2c(c1)OCO2 | -19.5% | . | . | -3.5
CCOC(=O)N1CCN(CCC(=O)Nc2cc(C)ccc2OC)CC1 | -2.9% | -2.8% | -0.3% | -2.7
COc1cc(C2CC(c3c(C)cc(C)[nH]c3=O)=NN2c2ccccc2F)cc(OC)c1OC (stereo unspecified) | 0.0% | ? | ? | .
CCCCNc1nc(=S)[nH]c2cc(OC)c(OC)cc12 | 7.4% | -5.5% | 4.7% | 2.0
COc1ccc(NC(=O)c2ccc(CN3CCN(c4ccccc4)CC3)cc2)cc1 | 7.7% | -19.7% | 0.2% | 1.3
COc1cccc(CNC(=O)C(=O)NCCC2CCCCN2S(=O)(=O)c2ccccc2)c1 (stereo unspecified) | . | 1.3% | 0.0% | .

3 entries out of the list above, ordered by the value under miR-21 reporter, lowest first:
SMILES | miR-21 reporter | Rango release inh | Rango-impB inh | GLA inh pH 4.5
CCOC(=O)CSc1nc2ccc(N3CCOCC3)cc2c(=O)n1Cc1ccc2c(c1)OCO2 | -19.5% | . | . | -3.5
COc1cc(C2CC(c3c(C)cc(C)[nH]c3=O)=NN2c2ccccc2F)cc(OC)c1OC (stereo unspecified) | 0.0% | ? | ? | .
COc1ccc(NC(=O)c2ccc(CN3CCN(c4ccccc4)CC3)cc2)cc1 | 7.7% | -19.7% | 0.2% | 1.3
